Compound activity from PubChem BioAssay.
FGF22 binding: binders of human FGF22 protein, primary screen, FGF22 synaptogenesis inhibitor project, biophysical, thermal shift, single point | Fibroblast growth factor 22 (Homo sapiens), Q9HCT0 | 1.5% of 340,000 active | AID 651658, 2012 | calls only at 9.99 µM | recombinant FGF22 thermal shift, SYPRO orange fluorescence; percent of sucrose octasulfate shift, DMSO zero;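 active = melting point raised past a set limit in the mean and every replicate; inconclusive = no clear call; three in four hits are not shown here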
UCH37 inh: inhibitors of human UCH37 deubiquitinase, primary screen, biochemical, Ub-AMC cleavage, fluorescence; Ubiquitin carboxyl-terminal hydrolase isozyme L5 (Homo sapiens), Q9Y5K5; purified proteasome/UCH37; inhibition, % (test concentration not listed); 0.33% of 330,000 active;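 active = mean of two replicates above 20%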;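 also: 0% = compound-free wells with enzyme and 100% = wells lacking proteasome; stock transfer was 100 nL into about 20 µL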
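Material: human UCH37 enzyme supplied as purified proteasome complex. Measure: % inhibition of Ub-AMC cleavage fluorescence. Medium: pH 7.4 Tris-HCl (50 mM) with ovalbumin, ATP-MgCl2, DTT. Times: 30 min preincubation with enzyme, 25 min cleavage at room temperature. Detection: AMC fluorescence intensity at 355/460 nm.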
Vif TR-FRET: inhibitors of Vif binding to APOBEC3G peptide, primary screen, biochemical, TR-FRET, GST-Vif 1-94, biotin-A3G peptide, dose response retest (AID 1117319). TR-FRET GST-Vif / biotin-A3G peptide binding; higher % means a stronger effect; test concentration not given here; strong numbers were not always called active. inhibition, %; hits with a dose series show IC50 in µM. 0.57% of 260,000 active;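 active = above the screen mean plus three standard deviations and confirmed in dose response; inconclusive = results disagree or hit not tested in dose response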;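 also: Vif residues 1-94 fused to GST binding biotinylated APOBEC3G peptide 110-148; 0% = full assay without inhibitor and 100% = GST in place of GST-Vif; retest series ran down from 100 µM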
Ecoli growth: E. coli growth inhibition, primary screen, OD600; Escherichia coli growth, 23 h; active compounds read low; OD600 absorbance (concentration not given with the values); 0.21% of 330,000 active; AID 1053175, 2014;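 active = OD600 absorbance below the run mean of sample wells minus 3.6 SD, in any replicate, cut at about 0.56 in these data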;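 also: stock transfer was 300 nL into about 60 µL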
HNF4A DNA FP: change in binding of human HNF4A to DNA, primary screen, biochemical, fluorescence polarization, FITC-DNA; Hepatocyte nuclear factor 4-alpha (Homo sapiens), P41235; 1 h; activity change, % at 10 µM; 0.3% of 360,000 active; in the data active = activity change above about 30%, passing the limit was not always enough;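 also: controls were the assay level and a saturating level of protein; the project sought stronger binding though the title names inhibitors; some compounds called inactive have numbers as strong as hits; positive values seem to mean higher polarization but the record does not say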
Target sequence (P41235 whole entry, looked up): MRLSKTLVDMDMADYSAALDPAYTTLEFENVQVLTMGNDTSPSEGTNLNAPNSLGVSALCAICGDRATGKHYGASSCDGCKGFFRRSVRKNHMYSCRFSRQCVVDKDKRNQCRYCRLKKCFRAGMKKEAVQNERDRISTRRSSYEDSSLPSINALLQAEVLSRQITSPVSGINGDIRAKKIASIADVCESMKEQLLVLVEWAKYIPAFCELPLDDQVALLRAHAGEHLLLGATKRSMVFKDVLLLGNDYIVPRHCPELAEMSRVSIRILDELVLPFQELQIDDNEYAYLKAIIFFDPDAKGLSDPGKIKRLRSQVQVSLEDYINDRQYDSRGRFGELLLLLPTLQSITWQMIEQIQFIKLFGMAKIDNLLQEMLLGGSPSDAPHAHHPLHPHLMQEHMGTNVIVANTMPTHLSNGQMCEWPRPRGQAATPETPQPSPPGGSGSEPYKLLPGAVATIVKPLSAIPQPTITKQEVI
RanGTP-Impb inh: inhibitors of RanGTP-importin-beta interaction, primary screen, biochemical, FRET, CFP-Ran, YFP-importin-beta, homogeneous | inhibition, % (no concentration beside the values) | Ran GTPase (GTP-bound) - importin-beta complex | cell-free CFP-Ran/YFP-importin-beta FRET ratio | 1.1% of 300,000 active | AID 2216, 2009;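 active = most replicates above 15%; inconclusive = exactly half above 15%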;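 also: 0% = DMSO wells and 100% = Ran loaded with GDP instead of GTP; wells of about 40 µL received 100 nL stock; the first replicate is given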
MLL AF4-AF9 inh: inhibitors of AF4 peptide binding to AF9, primary screen, biochemical, AlphaScreen, biotin-AF4 peptide, FLAG-AF9, single point; Protein AF-9 (Homo sapiens), P42568; inhibition, % at 10 µM; 0.47% of 350,000 active; AID 651704, 2012;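 active = every replicate reaching a set inhibition limit, whatever the replicate mean, cut at about 25% in these data; inconclusive = mean inhibition reaches that limit but some replicates miss it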;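 also: 0% = plate neutral control median and 100% = total signal loss; the record names both 10 and 1 µM as test concentration; the first replicate is given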
Target sequence (P42568 whole entry, looked up): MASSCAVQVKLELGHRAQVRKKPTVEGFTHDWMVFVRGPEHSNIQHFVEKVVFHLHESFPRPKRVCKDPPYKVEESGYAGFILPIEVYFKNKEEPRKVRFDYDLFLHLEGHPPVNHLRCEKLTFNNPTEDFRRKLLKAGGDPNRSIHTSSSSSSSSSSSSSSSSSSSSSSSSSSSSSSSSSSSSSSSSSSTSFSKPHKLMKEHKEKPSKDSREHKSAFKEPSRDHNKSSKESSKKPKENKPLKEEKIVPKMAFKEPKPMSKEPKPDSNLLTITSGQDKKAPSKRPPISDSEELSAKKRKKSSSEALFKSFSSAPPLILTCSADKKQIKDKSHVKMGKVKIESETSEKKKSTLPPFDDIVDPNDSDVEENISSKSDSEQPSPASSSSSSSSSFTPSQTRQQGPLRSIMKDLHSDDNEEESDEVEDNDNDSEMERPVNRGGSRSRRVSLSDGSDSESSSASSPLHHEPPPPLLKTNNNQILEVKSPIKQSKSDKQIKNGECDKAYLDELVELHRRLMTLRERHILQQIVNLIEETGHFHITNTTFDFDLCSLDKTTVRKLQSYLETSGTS
Active calls of the source: *; i = inactive; ? = inconclusive; / = not tested or not shown; & = joins results of further samples. This is a subset. The share of hits here may be higher or lower than overall.

SMILES | FGF22 binding | UCH37 inh | Vif TR-FRET | Ecoli growth | HNF4A DNA FP | RanGTP-Impb inh | MLL AF4-AF9 inh
Cc1ccc([C@@H]2CC(=O)[C@@H]3CN(S(=O)(=O)c4ccc(C)cc4)[C@H](c4ccccc4)C[C@@H]3N2S(=O)(=O)c2ccc(Cl)cc2)cc1 | i | / | / | / | 4.8 | / | -4.1
CCOc1ccccc1CN(CCc1ccc2c(c1)OCO2)Cc1ccccn1 | / | 2.4 | 11.6% | 0.694 | -3.1 | -3.4 | /
CC(=O)Nc1ccc(-c2csc(NCc3ccco3)n2)cc1 | / | -1.6 | 6.7% | 0.695 | 0.8 | 4.4 | /
Cc1cc(Cl)cc(Cl)c1OCCCCN(C)C | i | 4.8 | 0.5% | 0.607 | 0.3 | -2.5 | 4.9
CCC(C)C(NS(=O)(=O)c1ccc(C)cc1)C(=O)O (stereo not drawn) | i | -1.2 | -2.7% | 0.7 | 7.4 | -5.1 | -1.6
COc1ccc(NC(=O)CSc2nc3c([nH]c4ccccc43)c(=O)n2C)cc1 | i | 3.2 | -4.7% | 0.781 | 0.6 | 7.3 | -1.1
COc1ccc(C=NNC(=O)c2ccccc2OCc2ccc(F)cc2)c(OC)c1 | i | -9.0 | / | 0.687 | -1.8 | / | 0.3
O=C(COC(=O)/C=C/c1ccccc1Cl)NC(=O)NCc1ccccc1 | i | 3.8 | -1.6% | 0.706 | -1.0 | / | 0.5
O=C(NCc1ccccc1)c1ccc(COCC(F)(F)F)o1 | i | 5.5 | 5.1% | 0.63 | -4.6 | -5.0 | -2.4
O=S(=O)(c1ccc2nc(Cc3ccccc3)[nH]c2c1)N1CCOCC1 | / | 0.5 | 1.6% | 0.682 | 4.8 | 0.7 | /
CCN(CC)S(=O)(=O)c1ccc(Cl)c(NC(=O)c2ccncc2)c1 | i | 2.9 | -3.5% | 0.693 | -1.2 | 2.0 | -2.7
COc1cc(C(=O)OC(C)C(=O)N2CCc3ccccc3C2)ccc1OCC(=O)N1CCOCC1 (stereo not drawn) | / | 1.6 | 1.3% | 0.725 | -4.5 | -3.9 | /
O=C(CSc1cn[nH]n1)Nc1cccc(C(F)(F)F)c1 | i | 1.0 | / | 0.648 | 4.0 | 3.4 | -1.4
CC(C)OCCCNC(=O)c1ccc(CS(=O)(=O)Cc2ccccc2F)o1 | i | -2.4 | 1.4% | 0.637 | -1.7 | 6.7 | -8.1
COc1cc(N)ccc1Cc1ccc(N)cc1OC | / | 0.5 | 5.0% | 0.741 | 1.4 | 0.2 | /
O=[N+]([O-])c1cccc(NC(=S)N2CCc3ccccc32)c1 | i | 1.7 | / | 0.702 | -1.2 | / | 5.1
Oc1ccccc1Cc1c(O)ccc2ccccc12 | i | 4.7 | / | 0.63 | -0.9 | 4.2 | 2.7
COc1ccc(Cl)cc1NC(=O)C(C)Sc1nncn1C (stereo not drawn) | / | 1.6 | 0.4% | 0.763 | 0.2 | -2.7 | /
COc1ccc(C(=O)COC(=O)c2cccnc2SC)cc1 | i | / | -36.1% | / | -1.5 | -1.0 | -1.1
O=C1CCCC2=C1C1(O)C(=O)c3ccccc3C1(O)O2 (stereo not drawn) | / | 65.3* | 8.4% | 0.773 | -1.2 | 0.3 | /
CC(=O)c1cccc(NC(=O)C2C3C=CC(C3)C2C(=O)O)c1 (stereo not drawn) | i | 3.5 | -5.1% | 0.668 | 0.0 | -2.8 | -3.2
Cc1ccc(CNC(=O)CCc2nnc(Cc3ccc(-c4ccccc4)cc3)o2)o1 | i | 3.2 | 9.4% | 0.7 | 0.9 | 1.7 | 1.2
COC(=O)c1ccccc1NC(=O)Nc1cccs1 | / | 2.5 | 24.3% | 0.691 | 4.9 | -0.9 | /
O=C(/C=C/c1ccccc1)Nc1scc(-c2ccccc2)c1C(=O)O | / | 10.7 | 7.6% | 0.601 | 2.8 | -0.2 | -0.8
O=Cc1cc(-c2ccccc2)[nH]c1-c1ccccc1 | i | -29.9 | / | 0.773 | 9.4 | 1.3 | 3.1
SMILES | FGF22 binding | UCH37 inh | Vif TR-FRET | Ecoli growth | HNF4A DNA FP | RanGTP-Impb inh | MLL AF4-AF9 inh
COc1cc(F)ccc1S(=O)(=O)NCc1cccnc1 | i | 4.1 | -7.1% | 0.689 | -0.3 | 5.7 | -11.3
O=C(COC(=O)c1cc(=O)c2ccccc2o1)Nc1ccc2ccccc2c1 | / | 2.2 | / | 0.669 | 1.2 | 0.3 | /
C/C(N)=C(/C#N)C(=O)COC(=O)c1cccc(C)c1O | i | -6.1 | / | 0.706 | 0.2 | 3.5 | 4.2
Cc1cccc(C(=O)N/C(=C\c2ccco2)C(=O)N2CCCCCC2)c1 | i | 5.8 | / | 0.694 | -2.6 | -0.1 | 1.4
CC1Nc2nc(NC(=O)C(C)(C)C)[nH]c(=O)c2N(C)C1C (stereo not drawn) | i | -0.5 | 2.5% | / | 0.4 | ? | 6.9
O=C(NCC(=O)N1CCN(S(=O)(=O)c2cccs2)CC1)c1ccc(Cl)cc1 | i | -4.1 | -0.2% | 0.671 | -3.7 | -0.1 | -4.7
Cc1cc(/C=C2/C(=O)NN(c3ccccc3)C2=O)c(C)n1-c1cccc(O)c1 | i | 3.7 | / | 0.718 | -4.5 | ? | 5.0
CCCCn1nnnc1C(c1cc2ccccc2o1)N1CCN(CC(=O)NC(C)C)CC1 (stereo not drawn) | i | / | / | / | 0.2 | / | -2.1
CN(C)CCCOC(=O)c1ccc(Cl)cc1Cl | / | 7.0 | ? | 0.66 | -2.4 | 0.7 | /
C(=N\Nc1nc2ccccc2s1)/c1ccc2c(c1)OCO2 | i | / | 4.2% | / | -1.1 | 3.3 | -1.3
CCOc1ccc(N2C(=O)C(C)CNC2=S)cc1 (stereo not drawn) | i | / | -0.6% | / | -0.7 | / | -2.6
C/C(CC(=O)Nc1ccc(N(C)C)cc1)=N\NC(=O)c1ccccn1 | / | / | 14.0% | / | -0.8 | 4.3 | /
CN(C)C(=O)CCc1nc(-c2ccc(C(C)(C)C)cc2)no1 | / | 0.6 | 2.0% | 0.718 | 1.0 | 2.0 | /
COC(=O)c1sc(OC)cc1OCc1ccc(C)cc1 | / | -0.9 | -6.4% | 0.663 | 0.6 | 9.3 | /
COc1ccc(-c2csc(NC(=O)c3ccccc3F)c2C(=O)O)cc1 | / | 4.2 | / | 0.668 | 0.8 | ? | -1.5
Cc1nn(C)c(C)c1/C=N/O | / | / | 2.1% | / | 0.9 | 1.6 | /
COc1cc([N+](=O)[O-])ccc1NC(=O)NCCCN1CCCC1=O | i | 10.2 | / | 0.66 | 1.4 | 0.9 | -1.2
Cc1ccc(NC(=O)c2ncn(CC(=O)NCc3ccc4c(c3)OCO4)n2)cc1C | i | 3.4 | / | 0.683 | -1.3 | / | -2.3
COc1ccc(C(=O)C[n+]2cccc(Br)c2)cc1 | i | 5.6 | 6.0% | 0.674 | -1.5 | 1.7 | -0.5
O=C1CC2(CCN(C(=O)c3c(F)cccc3F)CC2)Oc2ccccc21 | i | -24.2 | -0.5% | 0.699 | 4.0 | ? | -13.3
CC(=O)NCc1cccc(CNC(C)=O)n1 | / | 5.1 | -0.9% | 0.709 | 3.4 | 0.2 | /
Cc1cc(C)c(C#N)c(SCc2ccccc2C)n1 | / | 2.0 | 2.0% | 0.691 | -2.6 | 2.2 | /
O=C(CCN1C(=O)/C(=C/c2ccccc2F)SC1=S)NCCc1ccc(O)cc1 | i | 5.6 | / | 0.679 | -3.6 | -1.3 | 1.8
CCCSc1nnc(NC(=O)Nc2ccc(C)cc2)s1 | i | -0.4 | ? | 0.615 | -0.9 | 0.6 | -0.1
COc1ccc(NC(=O)NCc2ccco2)c(OC)c1 | i | 5.1 | -3.0% | 0.691 | 2.5 | -1.7 | -1.3
SMILES | FGF22 binding | UCH37 inh | Vif TR-FRET | Ecoli growth | HNF4A DNA FP | RanGTP-Impb inh | MLL AF4-AF9 inh
CN(CCCNC(=O)CCC(=O)N1CCOc2ccccc21)Cc1ccccc1 | i | 1.0 | / | 0.703 | -2.5 | -1.8 | 6.4
CC(=O)Nc1ccc(-c2nnc(SCC(=O)c3ccc4c(c3)Cc3ccccc3-4)n2C)cc1 | i | 4.4 | 5.7% | 0.692 | -4.0 | 4.2 | 3.9
COc1cc(C(=O)NC(C)c2ccc3ccccc3c2)cc(Cl)c1O (stereo not drawn) | i | 6.2 | / | 0.687 | -2.0 | ? | -2.8
Cc1ccc(C)c(N2CCN(C(=O)CCS(=O)(=O)c3ccc4c(c3)oc(=O)n4C)CC2)c1 | i | 1.0 | / | 0.706 | 0.5 | ? | 3.0
CC(C(=O)N1CCN(c2ccc(Cl)cc2)CC1)c1ncc(C(F)(F)F)cc1Cl (stereo not drawn) | / | 4.4 | -3.0% | 0.681 | 0.4 | 4.0 | /
Cc1ccc(N2C(=O)CC(Nc3cccc4ccccc34)C2=O)cc1 (stereo not drawn) | i | -5.5 | ? | 0.689 | -1.4 | -3.3 | -0.8
Fc1ccc(C2=CC(c3cccs3)n3nnnc3N2)cc1 (stereo not drawn) | i | 1.4 | 23.2% | 0.673 | -1.7 | -20.4 | 1.5
c1ccc(OCCOCCOc2ccccc2)cc1 | / | 1.8 | 1.8% | 0.625 | 2.4 | / | -4.1
CC1CCCCN1CCNC(=O)C1CCCN(c2ncnc3c2nc2n3CCCCC2)C1 (stereo not drawn) | i | 5.4 | / | 0.682 | 1.4 | 0.2 | 3.0
Cc1oc(-c2ccc(Cl)cc2)nc1CS(=O)CC(=O)NCCCN(C)C1CCCCC1 (stereo not drawn) | / | 5.2 | 2.6%&0.2% | 0.66 | 3.7 | ? | /
Cc1cccc(NC(=O)c2ccc(Cl)c(S(=O)(=O)N3CCc4ccccc43)c2)n1 | i | 0.7 | -2.0% | 0.738 | -1.8 | / | 1.8
COc1ccc(CCN2C(=S)N(c3ccccc3)C(=O)C2CC(=O)O)cc1OC (stereo not drawn) | i | 4.4 | / | 0.69 | 1.4 | -0.6 | 0.8
CC(CN1C(C)CCCC1C)OC(=O)c1ccccc1Cl (stereo not drawn) | i | -0.2 | 9.4% | 0.654 | 2.4 | 1.4 | 0.4
Cc1ccc(NC(=O)COC(=O)C2=COCCO2)c([N+](=O)[O-])c1 | i | 5.1 | 0.9% | 0.696 | -0.8 | 2.6 | -1.3

Compound profiles, as listed above. Order of screens: FGF22 binding	UCH37 inh	Vif TR-FRET	Ecoli growth	HNF4A DNA FP	RanGTP-Impb inh	MLL AF4-AF9 inh
Record of CC(=O)Nc1ccc(-c2nnc(SCC(=O)c3ccc4c(c3)Cc3ccccc3-4)n2C)cc1 → i	4.4	5.7%	0.692	-4.0	4.2	3.9
Record of COc1ccc(CCN2C(=S)N(c3ccccc3)C(=O)C2CC(=O)O)cc1OC (stereo not drawn) → i	4.4	/	0.69	1.4	-0.6	0.8
Record of Cc1ccc(N2C(=O)CC(Nc3cccc4ccccc34)C2=O)cc1 (stereo not drawn) → i	-5.5	?	0.689	-1.4	-3.3	-0.8
Record of Cc1ccc(NC(=O)COC(=O)C2=COCCO2)c([N+](=O)[O-])c1 → i	5.1	0.9%	0.696	-0.8	2.6	-1.3
Record of Cc1cccc(NC(=O)c2ccc(Cl)c(S(=O)(=O)N3CCc4ccccc43)c2)n1 → i	0.7	-2.0%	0.738	-1.8	/	1.8
